# High-throughput results (PubChem BioAssay)
# Arbovirus anti: blocks arbovirus infection; AID 1251; 0.37% of 200,000 active; inhibition, % at 10 µM; arbovirus infection cell-based antiviral screen;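 active means inhibition from about 30%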;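 further: bluetongue infection of BSR cells; cell survival read as ATP light after 72 h; 0% = infected wells without compound and 100% = uninfected wells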
# RecA splice inh: blocks M. tuberculosis RecA intein splicing | P9WHJ3 | cell-free RecA intein splicing, fluorescence | inhibition, %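 (about 9 µM by stock and volumes)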 | 0.75% of 290,000 active | AID 2221; in the data active means inhibition above about 30%; inconclusive means no clear call, values can overlap the other calls;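 further: 0% = vehicle wells and 100% = reference inhibitor control wells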
# Target sequence (P9WHJ3 whole entry, looked up, canonical isoform): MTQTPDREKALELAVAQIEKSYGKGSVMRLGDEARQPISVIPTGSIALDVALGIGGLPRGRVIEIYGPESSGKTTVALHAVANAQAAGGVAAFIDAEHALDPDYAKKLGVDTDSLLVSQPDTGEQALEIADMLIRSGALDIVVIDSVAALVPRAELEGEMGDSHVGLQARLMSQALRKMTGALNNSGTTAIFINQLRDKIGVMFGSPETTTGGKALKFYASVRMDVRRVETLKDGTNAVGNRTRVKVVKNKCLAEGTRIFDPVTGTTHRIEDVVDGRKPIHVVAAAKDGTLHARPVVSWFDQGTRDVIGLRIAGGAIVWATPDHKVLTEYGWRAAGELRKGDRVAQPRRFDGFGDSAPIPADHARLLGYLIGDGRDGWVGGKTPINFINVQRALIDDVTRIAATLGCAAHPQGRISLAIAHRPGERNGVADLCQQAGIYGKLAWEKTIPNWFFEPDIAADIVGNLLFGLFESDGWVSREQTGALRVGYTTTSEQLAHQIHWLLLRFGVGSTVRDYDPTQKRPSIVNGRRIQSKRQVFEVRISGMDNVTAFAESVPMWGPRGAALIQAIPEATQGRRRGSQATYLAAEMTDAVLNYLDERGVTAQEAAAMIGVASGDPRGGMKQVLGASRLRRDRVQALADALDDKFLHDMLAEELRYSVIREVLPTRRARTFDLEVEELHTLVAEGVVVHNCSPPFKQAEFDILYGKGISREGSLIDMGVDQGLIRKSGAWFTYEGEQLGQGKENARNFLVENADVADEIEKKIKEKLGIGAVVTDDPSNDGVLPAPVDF
# Mtb bLac sens: beta-lactam sensitization of Mtb H37Rv. inhibition, % at 25 µM. 0.27% of 330,000 active. AID 434955. M. tuberculosis H37Rv growth with meropenem, percent inhibition; hits of this screen are not shown here;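 active means about 74% or more and at least 40 points above the plate without the antibiotic, then above 30% in a dose series; inconclusive means first-round hits that could not be retested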;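 further: growth measured after seven days incubation then overnight dye step; 0% = bacteria only wells and 100% = bacteria with antibiotic; twin plates without the antibiotic show which effects depend on it; some results filed as inactive read as strong as hits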
# Mtb growth: M. tuberculosis H37Rv growth inhibitors, H37Rv strain (AID 1626); M. tuberculosis H37Rv growth inhibition; higher % means a stronger effect; inhibition, % at 10 µM, or IC50 in µM where a hit was titrated; 0.95% of 220,000 active;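 active means confirmed in a dose series; inconclusive means inhibition above 80% but not taken into the dose series; inactive means below 80% or under 30% at every dose of the series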;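 further: bacteria incubated seven days before Alamar blue readout; 0% = bacteria only wells and 100% = bacteria with antibiotic wells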
# YopH inh: YopH (Yersinia) phosphatase inhibition. 0.16% of 140,000 active. fluorescence Ex485/Em525. AID 898. inhibition, %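 (about 10 µM by stock and volumes)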;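 active means inhibition of 50% or more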;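 further: controls were vehicle for no effect and minimum signal wells for full effect; inactives centre near -20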
# Arbovirus anti repeat: recorded beside Arbovirus anti, whose call it bears; inhibition, %; measured here: 10K subset replicate screen; many hits read low in the repeat;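 first of two repeat runs on a subset; 0% = infected and 100% = uninfected wells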
# Numbers without * were called inactive; ? = inconclusive; . = no result given. Not all compounds are listed; rates above refer to the full screens.
SMILES,Arbovirus anti,RecA splice inh,Mtb bLac sens,Mtb growth,YopH inh,others
c1ccc2oc(-c3csc(N4CCOCC4)n3)cc2c1,-1.3,-2.3,-7.9,8.6%,.,
CC(=O)NC1C(=O)N=C(SC(C)C(=O)Nc2cccc(Cl)c2)NC1=O (configuration not stated),3.4,-4.3,-2.3,4.4%,.,
CN1CCN(S(=O)(=O)c2cccc(C(=O)NC3CCCC3)c2)CC1,.,-2.3,-1.5,.,.,
COc1cccc(OCC(=O)Nc2ccncc2)c1,.,0.1,0.5,.,.,
CCN(CC)CCNC(=O)C(=O)Nc1ccc2c(c1)N(S(=O)(=O)c1cccs1)CCC2,.,-2.7,5.7,.,.,
Cn1c(SCC(=O)NC2CCCC2)nnc1-c1cccs1,.,6.2,-0.1,.,.,
CCC(C)N=Cc1c(Nc2ccccc2)nc2c(C)cccn2c1=O (configuration not stated),.,-0.3,37.2,35.0%,.,
CC(NC(=O)C(=O)c1cn(CC(=O)N2CCOCC2)c2ccccc12)c1ccccc1 (configuration not stated),.,0.7,-3.3,.,.,
Cc1cc(OCC(=O)O/N=C(\N)c2ccccc2)ccc1Cl,1.3,.,-0.2,2.8%,-11.3,
CC1(C)Cc2cccc(C(=O)Nc3ccc(F)cc3F)c2O1,.,4.4,19.9,3.7%,.,
COC(=O)c1ccc(N2CCOCC2)c(NC(=O)c2cccs2)c1,.,-1.9,-4.7,.,.,
CCOc1cc(/C=C/C(=O)O)ccc1OCc1ccccc1,5.1,-2.3,0.3,1.2%,.,
CCOC(=O)C(C)Sc1snnc1C (configuration not stated),.,-6.3,-0.7,1.7%,-37.2,
CCCOc1cccc(C(=O)Nc2ccc(Br)cc2F)c1,-3.0,-2.2,-1.1,2.5%,-34.8,
O=C(Cn1ncc2c1-c1ccccc1OC2)N1CCN(c2ccccn2)CC1,3.5,3.4,-0.7,-5.0%,-22.8,Arbovirus anti repeat=2.1
CCOc1ccc(N(CC(=O)NCc2ccc(OC)cc2)C(=O)CCC(=O)Nc2nccs2)cc1,.,-3.0,-1.7,.,.,
CC1=NN(c2ccc(Br)cc2)C(=O)/C1=C/c1cccs1,3.6,-2.4,48.3,24.6%,-6.8,
CCOC(=O)N1CCN(C(=O)c2cccc(F)c2)CC1,2.6,.,-2.8,-1.2%,.,
CCOC(=O)Cc1c[nH]c(=S)[nH]c1=O,.,-0.6,-10.9,-9.1%,.,
Cc1ccc(S(=O)(=O)c2cnc(-c3ccccc3)nc2N2CCCCC2)cc1,6.1,0.3,0.5,11.1%,.,
C=CCn1c(SCC(=O)Nc2sc3c(c2C#N)CCC3)nnc1C1COc2ccccc2O1 (configuration not stated),-8.3,5.7,4.7,-2.2%,-16.8,
CCOc1ccccc1N(C(=O)CNC(=O)c1ccco1)C(C(=O)NC1CCCC1)c1ccncc1 (configuration not stated),.,-2.2,-3.7,.,.,
Cc1ccc2nc(-c3ccncc3)cc(C(=O)Nc3ccncc3)c2c1,.,0.0,10.5,.,.,
Cc1onc(-c2ccccc2)c1C(=O)OCCOc1ccc([N+](=O)[O-])cc1[N+](=O)[O-],.,3.1,0.3,.,.,
CCN(CC)C(=O)CSc1nnc2cc(C)c3ccccc3n12,2.3,2.3,0.5,0.4%,.,
N#C/C(=C\c1ccc(Sc2nc3ccccc3[nH]2)o1)c1ccccc1,-29.2,9.5,-4.9,11.9%,-10.2,
Cc1cccc(C(=O)NCc2nnc3c4ccccc4c(-c4ccccc4)nn23)c1,-4.0,.,4.2,-6.3%,-30.1,
CN1c2ccsc2/C(=N/NC(=O)c2c(F)cccc2F)CS1(=O)=O,-6.3,-2.7,62.9,5.6%,10.1,
Cc1scc(C(=O)NNC(=S)NCC(C)C)c1C,4.3,0.9,2.4,1.7%,-19.1,
C=C1CCN([C@@H](CC(C)C)C(=O)N2CCOCC2)S(=O)(=O)c2ccccc21,.,0.2,-1.4,-1.8%,.,
Cc1cc(=O)oc(C)c1C(=O)NCc1ccccc1,-0.1,-0.9,-6.6,4.7%,-30.6,
N#C/C(=C(/O)c1ccc(C(=O)c2ccccc2)cc1)c1nc2ccccc2[nH]1,.,-2.8,-2.6,0.2%,.,
O=C(CN1C(=O)C2C3C=CC(C3)C2C1=O)OCC(=O)c1ccccc1 (configuration not stated),-2.8,-0.4,0.8,-12.6%,-4.4,
Nc1ncc(CN2CCCC(C(=O)Nc3ccc(-c4ccco4)cc3)C2)cn1 (configuration not stated),.,1.4,0.0,.,.,
COc1ccccc1NC(=O)c1sc2ncn(Cc3ccc(C)cc3)c(=O)c2c1C,-13.8,4.0,8.0,6.3%,-31.2,
NC(=O)c1c(NC(=O)CN2C(=O)NC(Cc3ccccc3)C2=O)sc2c1CCC2 (configuration not stated),.,0.4,5.9,3.9%,.,
Cc1ccc(NC(=O)COC(=O)CCC(=O)c2cccs2)c(C)c1,1.3,-0.5,-6.9,-5.5%,.,
COc1ccc(/C=C/C(=O)NC(=S)N2CCSCC2)cc1,-0.3,1.0,27.8,9.3%,.,
O=C(CCC(=O)c1ccc(F)cc1)Nc1cc(Cl)cc(Cl)c1,8.2,2.2,1.6,-9.0%,-16.5,
Cc1ccccc1OCC(=O)OCC(=O)Nc1cc(C(F)(F)F)ccc1N1CCOCC1,5.6,0.9,64.3,4.0%,15.0,
O=C(c1ccc(S(=O)(=O)N2CCCC2)cc1)N1CCCCCC1,.,-3.9,-10.1,-1.3%,.,
COc1ccc(OC)c(NC(=O)Nc2ccc3c(c2)CCC3)c1,.,1.7,-3.6,.,.,
Cc1ccc(CSCC(=O)Nc2c(C)n(C)n(-c3ccccc3)c2=O)cc1,-2.8,-0.6,-4.8,-6.0%,-18.8,
O=C(Nc1cccnc1)C1CCN(S(=O)(=O)c2cccc3nonc23)CC1,-0.1,-1.9,-3.5,-0.7%,-31.0,
N#C/C(=C(/O)COC(=O)CSc1ccc2ccccc2c1)c1nc2ccccc2[nH]1,-20.7,3.5,84.4,?,-19.8,
COc1ccc(OC)c(-c2nnc(SCC(=O)N3CCCC3)o2)c1,.,-2.3,6.9,.,.,
CCOC(=O)N1CCC(NC(=O)c2cc3c(-c4cccc(OC)c4)nn(C)c3s2)CC1,-2.6,-2.7,4.9,3.9%,-33.4,
c1cncc(CNc2ncnc3sc4c(c23)CCC4)c1,13.3,-0.8,3.4,0.9%,.,
COC(=O)Nc1ccc2c(c1)N(C(=O)CCN(C)C)c1ccccc1CC2,.,0.9,2.1,.,.,
COC(=O)c1ccc(CNC(=O)COC(=O)Cc2ccsc2)cc1,3.5,0.9,-0.6,80.3%,.,

# Additional compounds:
SMILES,Arbovirus anti,RecA splice inh,Mtb bLac sens,Mtb growth,YopH inh,others
O=C(NCCc1ccccc1)c1ccccc1[N+](=O)[O-],.,-0.6,5.0,.,.,
CCC(CC)N1CCN(Cc2nc3ccc([N+](=O)[O-])cc3c(=O)n2-c2ccccc2F)CC1,.,2.4,0.8,.,.,
CCC(=O)N(CC)C1=C(O)c2ccccc2C(=O)C1=O,-1.7,73.0*,-7.1,-7.5%,12.6,
COc1ccc(/C=C2\SC(=O)NC2=S)cc1OC,0.0,2.5,-2.8,2.7%,-21.5,
CNC(=S)N1CCN(c2ccc([N+](=O)[O-])cc2)CC1,-6.8,-0.7,4.8,.,-37.6,
CC(C)(C)NS(=O)(=O)c1ccc(CCC(=O)NCc2ccco2)cc1,4.9,4.1,-5.6,-12.0%,-18.2,
COc1cc(=O)[nH]c(=O)n1C(=O)Cc1ccccc1,6.2,0.2,38.0,3.9%,-48.2,Arbovirus anti repeat=3.4
Cc1cc(Nc2nnnn2-c2ccccc2)n(-c2ccccc2)n1,1.6,1.3,-1.3,-7.5%,-4.9,
Cc1nc2ccc(F)cc2cc1C(=O)NCC1CCCO1 (configuration not stated),-3.1,3.8,.,0.6%,-16.9,
Cc1ccnc(NC(=O)Nc2cccc(F)c2)n1,0.6,-3.2,3.9,0.5%,.,
CC1(C(=O)NNC(=O)C2CCCCC2)CC1(Cl)Cl (configuration not stated),.,-1.0,-14.9,1.1%,.,
Cc1ccc(CN2CCN(/N=C/c3cc(Br)ccc3O)CC2)cc1,-1.0,-0.1,-6.8,2.8%,-40.4,
COc1ccc2cc3cc(C(=O)NC(C)C)oc3nc2c1,-5.2,-1.9,52.7,-1.0%,-1.0,
Cc1ccc(C)c2[nH]c(=O)c(CCNC(=O)c3ccc(S(=O)(=O)N4CCCC4)cc3)cc12,.,-0.5,9.5,.,.,
CC1(C)CC(=O)C(C(O)c2ccccc2)C(C)(C)N1 (configuration not stated),.,-1.6,0.1,.,.,
CCOc1ccc(CNC(=O)C2CC(=O)N(C3CCCC3)C2)cc1OC (configuration not stated),4.7,12.3,-0.7,-8.1%,-14.3,
CC1(C)CC2(CC(c3ccccc3F)c3ccc(O)c(O)c3O2)NC(=S)N1 (configuration not stated),3.0,3.5,-12.4,1.3%,.,
O=C(Nc1ccc(-c2cn3ccsc3n2)cc1)c1ccc(F)c(S(=O)(=O)N2CCOCC2)c1,-4.2,-1.2,1.2,0.4%,-25.2,
Cc1onc(-c2c(F)cccc2Cl)c1C(=O)Nc1nc2c(s1)CCCC2,2.7,8.2,89.7,4.7%,-16.4,
Cc1ccc(C)c(-n2c(-c3csc(C)c3)n[nH]c2=S)c1,-1.7,1.2,?,3.8%,-10.1,
Cc1ccc2[nH]c(=O)c(CN(Cc3cccnc3)C(=S)NCCCN(C)C)cc2c1,2.2,-0.8,-5.3,-6.3%,.,
CC(=O)c1ccc(C(=O)NC2CC(C)(C)Cc3c2cnn3-c2ccccc2)cc1 (configuration not stated),.,4.3,5.3,.,.,
COC(=O)c1cn(C(=O)c2ccc(Cl)cc2)c2ccccc12,.,-1.6,0.8,-3.3%,.,
CCOc1ccc(-c2nnc3n2N=C(c2ccc(OC)cc2)CS3)cc1,1.5,10.2,3.9,5.8%,-3.0,Arbovirus anti repeat=-6.2
COc1ccc(CNC(=O)C(c2ccc(C)o2)N(Cc2cccs2)C(=O)Cc2cccs2)cc1 (configuration not stated),-10.5,4.0,-5.5,6.2%,-18.4,
CC1CN(C(=O)CCc2cc(C(C)(C)C)c(O)c(C(C)(C)C)c2)CC(C)O1 (configuration not stated),.,-0.2,-10.0,.,.,
C#CC[N+]1(C)[C@@H]2CC[C@H]1CC(OC(=O)C(CO)c1ccccc1)C2 (some centres not stated),.,1.4,-9.0,.,.,
O=C(Nc1ccnn1C1CCN(C2CCCCC2)CC1)c1ccccc1,.,-1.8,-5.7,.,.,
Cc1ccc(NC(=O)C(C)Sc2nnc(-c3cccnc3)n2-c2ccccc2)cc1 (configuration not stated),-7.2,1.7,4.0,4.2%,-0.7,
CCC1=Nc2ccccc2-c2nnc(SC)nc2O1,6.6,4.4,-2.6,-4.7%,-8.4,

# Among those listed so far, eight have an NH in an aromatic ring.
SMILES,Arbovirus anti,RecA splice inh,Mtb bLac sens,Mtb growth,YopH inh,others
CCOC(=O)Cc1c[nH]c(=S)[nH]c1=O,.,-0.6,-10.9,-9.1%,.,
N#C/C(=C\c1ccc(Sc2nc3ccccc3[nH]2)o1)c1ccccc1,-29.2,9.5,-4.9,11.9%,-10.2,
N#C/C(=C(/O)c1ccc(C(=O)c2ccccc2)cc1)c1nc2ccccc2[nH]1,.,-2.8,-2.6,0.2%,.,
N#C/C(=C(/O)COC(=O)CSc1ccc2ccccc2c1)c1nc2ccccc2[nH]1,-20.7,3.5,84.4,?,-19.8,
COc1cc(=O)[nH]c(=O)n1C(=O)Cc1ccccc1,6.2,0.2,38.0,3.9%,-48.2,Arbovirus anti repeat=3.4
Cc1ccc(C)c2[nH]c(=O)c(CCNC(=O)c3ccc(S(=O)(=O)N4CCCC4)cc3)cc12,.,-0.5,9.5,.,.,
Cc1ccc(C)c(-n2c(-c3csc(C)c3)n[nH]c2=S)c1,-1.7,1.2,?,3.8%,-10.1,
Cc1ccc2[nH]c(=O)c(CN(Cc3cccnc3)C(=S)NCCCN(C)C)cc2c1,2.2,-0.8,-5.3,-6.3%,.,

# Further entries:
SMILES,Arbovirus anti,RecA splice inh,Mtb bLac sens,Mtb growth,YopH inh,others
CC(=O)C(Sc1nccc(-c2cccs2)n1)C(C)=O,3.9,0.5,-8.0,2.1%,.,
Nc1c(C(=O)NCCc2ccccc2)nnn1Cc1ccccc1,-3.8,-0.5,?,-13.9%,-26.4,
N/C(Cc1cccc2ccccc12)=N\OC(=O)Cc1cccs1,1.4,21.7,7.4,2.7%,-33.2,
O=C(NC1CCCCC1)C(c1ccc(F)cc1)N(Cc1ccco1)C(=O)CN1C(=O)c2ccccc2S1(=O)=O (configuration not stated),-19.5,-4.3,-1.7,0.2%,-17.9,
Cc1ccc(NC(=O)CSc2ccc(C(N)=O)cc2[N+](=O)[O-])cc1,7.0,1.0,8.6,.,-23.6,
